MARV entry inh: blocks Marburg virus binding to or entry into cells; Marburg virus pseudotyped entry inhibition, cell reporter; control for the full effect not named in the record; about a third of the inactives were read at about 46 µM; Potency, µM (titrated, usually from 37.8 µM), without a hit: at the top dose activity change, negative = inhibition, usual class: inhibitors; 1.8% of 300,000 active; AID 540276; active = well fitted inhibition curve with a large enough effect; inconclusive = small, poorly fitted or top-dose-only effect, or effect the other way; inactive = flat fitted curve, though single readings scatter; tested in HEK293 cells; about a fifth of its hits are not listed in these tables; note: % is set by controls: 0 for no effect and ±100 for the full control effect; luciferase read-out
Lassa entry inh: inhibitors of Lassa virus binding or cell entry. Lassa virus pseudotype entry inhibition, cell reporter; control for the full effect not named in the record. Potency, µM (doses to about 37.9 µM), inactives show at the highest dose activity change, negative = inhibition, hits mostly inhibitors. 1.2% of 300,000 active; active means well fitted inhibition curve with a large enough effect; inconclusive means small, poorly fitted or top-dose-only effect, or effect the other way; inactive means flat fitted curve, though single readings scatter; tested in HEK293 cells; note: % is set by controls: 0 for no effect and ±100 for the full control effect; nearly all actives have a fitted effect of over 50% in size; luciferase read-out
Cruzain inh Det: blocks cruzain activity in presence of Triton detergent | purified cruzain, Z-FR-AMC fluorescence, 0.01% Triton | Potency, µM, for inactives: max response, negative = inhibition, hits mostly inhibitors | 0.43% of 200,000 active | AID 1478; active = well fitted curve in the direction sought with a large enough effect; inconclusive = small, poorly fitted or top-dose-only effect, or another doubt; inactive = no such curve, though single readings can be large; an effect the other way counts as inactive or inconclusive;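 note: plate controls were neutral wells for no effect and buffer without enzyme for full effect; nearly all actives have a fitted effect of over 40% in size; top concentration of the series not given in the record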
Target sequence (P25779 123-467 limits assumed): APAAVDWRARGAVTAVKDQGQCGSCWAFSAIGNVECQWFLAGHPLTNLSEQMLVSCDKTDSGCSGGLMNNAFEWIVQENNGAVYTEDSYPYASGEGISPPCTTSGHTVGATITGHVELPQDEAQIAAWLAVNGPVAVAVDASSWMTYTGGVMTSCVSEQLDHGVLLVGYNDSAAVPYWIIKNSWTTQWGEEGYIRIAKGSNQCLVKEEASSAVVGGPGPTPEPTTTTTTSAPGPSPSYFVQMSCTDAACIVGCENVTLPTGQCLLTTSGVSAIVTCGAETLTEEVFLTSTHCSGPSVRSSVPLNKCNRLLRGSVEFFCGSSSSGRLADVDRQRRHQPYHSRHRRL
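Detergent-containing arm of a paired screen for aggregation-based inhibition: 0.01% Triton X-100 present. Cruzain at 1.5 nM cleaved 2 uM Z-FR-AMC at pH 5.5 with 5 mM DTT; AMC fluorescence gain over 60 s measured activity.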
StopGo reporter: FMDV 2A StopGo reporter, luciferase signal. AID 1159524. 1.2% of 410,000 active. Potency, µM (titrated, usually from 57.9 µM), inactives show top-dose signal change, negative = less light. human cells with a luciferase reporter of 2A StopGo recoding; control for the full effect not named in the record; active = well fitted falling curve with a large enough effect; inconclusive = small, poorly fitted or top-dose-only effect; inactive = no such curve, though single readings can be large or run the other way; tested in HEK293T cells; note: % is set by controls: 0 for no effect and ±100 for the full control effect; nearly all actives have a fitted effect of over 45% in size; luciferase light after 4 h
SARS PLP yeast: blocks SARS-CoV papain-like protease in a yeast assay; S. cerevisiae expressing SARS-CoV PLpro, growth rescue; control for the full effect not named in the record; Potency, µM (top dose mostly 32.9 µM), for the others: at the top dose activity, positive = growth rescue; 0.19% of 330,000 active; note: 0% is about no effect; nearly all actives have a fitted effect of over 55% in size; growth read by luminescence after 48 h
RE007 growth inh: less growth of the S. pombe RE007 Vpr strain | Potency, µM (highest dose often 92.2 µM), inactives show at the highest dose activity change, negative = less growth | AID 651644 | 0.21% of 360,000 active | S. pombe RE007 Vpr strain, BacTiter-Glo ATP luminescence, 24 h; control for the full effect not named in the record; active = well fitted falling curve with a large enough effect; inconclusive = small, poorly fitted or top-dose-only effect; inactive = no such curve, though single readings can be large or run the other way;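 note: % is set by controls: 0 for no effect and ±100 for the full control effect; nearly all actives have a fitted effect of over 50% in size; the assay follows cell death caused by Vpr and the record does not say whether a fall means rescue or toxicity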
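Fission yeast RE007 carrying one integrated HIV-1 vpr copy, seeded at OD 0.01 in PMG+AL medium with 23 nL pinned compound. Grown 24 h at 30 degrees; viability read by BacTiter-Glo luminescence after 5 min.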
Cruzain inh noDet: cruzain (T. cruzi) inhibition without detergent; P25779; purified cruzain, Z-FR-AMC fluorescence, no detergent; Potency, µM, for inactives: max response, negative = inhibition, hits mostly inhibitors; 2.3% of 200,000 active; AID 1476; active = well fitted curve in the direction sought with a large enough effect; inconclusive = small, poorly fitted or top-dose-only effect, or another doubt; inactive = no such curve, though single readings can be large; an effect the other way counts as inactive or inconclusive;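 note: plate controls were enzyme without inhibitor for no effect and buffer without enzyme for full effect; nearly all actives have a fitted effect of over 40% in size; top concentration of the series not given in the record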
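Purified cruzain at 1.5 nM, pre-incubated 15 min with compound at room temperature in 100 mM sodium acetate pH 5.5, 5 mM DTT, 0.00005% Triton X-100. Reaction started with 2 uM Z-FR-AMC; AMC fluorescence increase over 60 s gives rate.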
NS1 function inh: influenza NS1 inhibition. AID 2326. S. cerevisiae slowed by influenza A NS1, growth recovery by OD600. Potency, µM (highest dose often 46.1 µM), inactives show top-dose activity, positive = more growth. 0.4% of 270,000 active; note: actives are rising curves; nearly all actives have a fitted effect of over 50% in size
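In this qHTS, NS1 from influenza A is expressed in budding yeast, where it slows growth. Cells are switched from glucose to 2% galactose medium (pH 6.0, -URA), treated with compound, and growth recovery is read at OD600.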
* = called active by the depositor; ? = inconclusive; nt = not tested or not shown; & = joins results of further samples; [ ] = remark or other dose. Unless noted, calls come from the whole dose curve; as a rule, active means well fitted rising curve with a large enough effect; inconclusive means small, poorly fitted or top-dose-only effect; inactive means no such curve, though single readings can be large or run the other way. Potency is the fitted concentration of half-maximal effect.

Start of the data: the first 3 compounds (preview)
entry	molecule	MARV entry inh	Lassa entry inh	Cruzain inh Det	StopGo reporter
1	COc1cn(-c2ccccc2)nc1C(=O)NCc1ccc(C)cc1	3%	-19%	nt	14%
2	O=C(Nc1nnc(SCc2ccc(Cl)cc2)s1)C1CC(=O)N(Cc2ccccc2)C1 (stereo unspecified)	6%	2%	-4.8%	-11%
3	Cc1cccn2c(=O)c3cc(C#N)c(=NC(=O)c4cccs4)n(CC(C)C)c3nc12	-12%[46.1 µM]	10%[46.1 µM]	nt	?

entry	SARS PLP yeast	RE007 growth inh	Cruzain inh noDet	NS1 function inh
1	-9%	-3%	nt	-81%
2	18%	-11%	?	5%
3	1%	2%	nt	2%

This part in full, from the first entry:
entry	molecule	MARV entry inh	Lassa entry inh	Cruzain inh Det	StopGo reporter
1	COc1cn(-c2ccccc2)nc1C(=O)NCc1ccc(C)cc1	3%	-19%	nt	14%
2	O=C(Nc1nnc(SCc2ccc(Cl)cc2)s1)C1CC(=O)N(Cc2ccccc2)C1 (stereo unspecified)	6%	2%	-4.8%	-11%
3	Cc1cccn2c(=O)c3cc(C#N)c(=NC(=O)c4cccs4)n(CC(C)C)c3nc12	-12%[46.1 µM]	10%[46.1 µM]	nt	?
4	COc1ccc(CNC(=O)Cc2c(C(=O)O)[nH]c3ccccc23)c(OC)c1	nt	nt	nt	-13%
5	O=C(CN1CCN(c2cccc(Cl)c2)CC1)NC1CCCc2ccccc21 (stereo unspecified)	?	?	nt	-19%
6	CN(CCOc1ccccc1)C(=O)c1cc(S(=O)(=O)N2CCCCC2)ccc1Cl	?	?	nt	-12%
7	CC(=O)NS(=O)(=O)c1ccc(NC(=O)COc2ccc(C(=O)c3ccccc3)cc2)cc1	-3%	5%	-9.9%	-20%
8	CCN(C#N)c1nc(N(C)C)nc(N(C)C)n1	19%	-4%	-0.4%	0%
9	COc1ccc(/C=C2/Sc3ccc(C(=O)NCCN4CCCCCC4)cc3NC2=O)cc1	nt	nt	nt	-6%
10	CCC(=O)c1cc(F)c(N2CCN(C(=O)Cc3ccccc3)CC2)cc1C	?	?	-0.5%	?
11	O=C(CCCC(=O)OCC(=O)c1ccc(Cl)cc1)NC1CCCCC1	23%	-1%	nt	-23%
12	Cc1nn(C)c(Oc2cccc(Cl)c2)c1C(=O)Nc1ccc(F)cc1	3%	-8%	2.5%	?

entry	SARS PLP yeast	RE007 growth inh	Cruzain inh noDet	NS1 function inh
1	-9%	-3%	nt	-81%
2	18%	-11%	?	5%
3	1%	2%	nt	2%
4	2%	-5%	nt	9%
5	-4%	5%	nt	-11%
6	0%	6%	nt	nt
7	10%	1%	?	25%
8	-2%	5%	2%	?
9	2%	18%	nt	1%
10	1%	35%	-2%	-18%
11	-1%	-21%	nt	-7%
12	-1%	18%	24%	-1%

Additional results
entry	molecule	MARV entry inh	Lassa entry inh	Cruzain inh Det	StopGo reporter
13	CC1=C(C(=O)N2CCN(c3cc(C)ccc3C)CC2)C2(CCC(C)CC2)OC1=O (stereo unspecified)	8%[46.1 µM]	-3%[46.1 µM]	-3.5%&-3.9%	0%
14	COc1cccc(NC(=O)COC(=O)c2cc(=O)c3ccccc3o2)c1	0%	8%	nt	27%
15	O=C(CN1CCOCC1)Nc1ccccc1C(=O)Nc1ccccc1	-9%[46.1 µM]	nt	nt	-4%
16	COc1ccc(S(=O)(=O)N2CCCCCC2)cc1C(=O)N1CCCCC1	8%	0%	nt	0%
17	CON1C(=O)C(=O)N(OC)C(C)(C)C1C (stereo unspecified)	10%	5%	-2.0%	nt
18	Cc1nn(CCCC(=O)Nc2ccc(Br)cc2F)c(C)c1[N+](=O)[O-]	?	-6%[46.1 µM]	nt	-17%
19	CCn1c(=O)c(=O)[nH]c2cc(C(=O)NC3CCCc4ccccc43)ccc21 (stereo unspecified)	21µM*	?	-8.2%	24%
20	CC(C)n1nnnc1SCC(=O)c1ccc2c(c1)OCCO2	27%	7%	-5.5%	38%[activator]
21	C=C[C@]1(C)C[C@H]1[C@H](NP(=O)(c1ccccc1)c1ccccc1)c1ccccc1	-1%	3%	-6.5%	41%[activator]
22	CN1C(=O)/C(=N\OC(=O)c2ccccc2Cl)c2ccccc21	nt	nt	nt	-8%
23	CCn1cc2nc(SCc3cccc(C(F)(F)F)c3)n(Cc3ccc(OC)cc3)c(=O)c2n1	nt	?	-1.1%	?
24	COc1cc(CN(C(=O)c2cc3ccccc3oc2=O)C2CCS(=O)(=O)C2)cc(OC)c1OC (stereo unspecified)	1%[46.1 µM]	4%[46.1 µM]	-3.1%	3%&40%

entry	SARS PLP yeast	RE007 growth inh	Cruzain inh noDet	NS1 function inh
13	-7%	nt	7%&3%	15%
14	-1%	13%	nt	nt
15	0%	-21%	nt	-9%
16	0%	-5%	nt	-1%
17	5%	-4%	-6%	-8%
18	-9%	-18%	nt	nt
19	4%	-2%	-4%	-7%
20	1%	0%	3%	-6%
21	-6%	7%	0%	7%
22	-1%	2%	nt	-4%
23	nt	nt	27%	nt
24	0%	-2%	-19%	1%

Other entries.
entry	molecule	MARV entry inh	Lassa entry inh	Cruzain inh Det	StopGo reporter
25	O=C(NCc1ccco1)/C(=C\c1cccnc1)NC(=O)c1ccccc1F	4%	20%	0.5%	-19%
26	CCCC(=O)Nc1cc(C(=O)N(C)CC(OC)OC)ccc1S(=O)(=O)c1ccc(C)cc1	nt	nt	nt	-7%
27	O=C(NCc1cc2ccccc2[nH]1)c1ccccc1F	?	4%	nt	39%[activator]
28	CCC(NC(=O)C1CCCC1)c1ccccc1 (stereo unspecified)	-3%	19%	nt	-7%
29	Cc1c2cnn(CC(=O)NCc3ccc(Cl)cc3)c(=O)c2c(C)n1Cc1ccc(F)cc1	4%[46.1 µM]	-19%[46.1 µM]	2.7%	-1%
30	C/C(=N\NC(=O)COc1ccc(C(C)(C)C)cc1)c1ccccc1	-4%[46.1 µM]	-5%	nt	4%
31	CNC(=S)N1CCN(C(c2ccccc2)c2ccccc2)CC1	5%[46.1 µM]	-19%[46.1 µM]	nt	-7%
32	COc1cccc(/C=N/N2CCN(Cc3ccccc3)CC2)c1O	4%	12%	nt	18%
33	Cc1cccc(C)c1NC(=O)C1(N(Cc2ccco2)C(=O)Cn2nnnc2N)CCCCC1	5%	-13%	1.1%	-16%
34	CNC(=O)c1cc(OCC(F)(F)F)ccc1OCC(F)(F)F	6%[46.1 µM]	-2%[46.1 µM]	nt	16%
35	CN(C)c1cccc(C(=O)Nc2nc3ccc(S(=O)(=O)NC(C)(C)C)cc3s2)c1	nt	?	-7.2%	-21%
36	Cc1c(CCC(=O)O)c(=O)oc2cc(OCc3ccccc3F)ccc12	-12%[46.1 µM]	-9%[46.1 µM]	nt	21%

entry	SARS PLP yeast	RE007 growth inh	Cruzain inh noDet	NS1 function inh
25	7%	-18%	0%	21%
26	-1%	-17%	nt	-2%
27	nt	10%	nt	20%
28	nt	-1%	nt	nt
29	nt	nt	15%	nt
30	-15%	-3%	nt	-3%
31	1%	-7%	nt	1%
32	12%	-21%	nt	16%
33	-38%	-6%	-9%	-11%
34	0%	-2%	nt	-3%
35	nt	nt	25%	nt
36	1%	-6%	nt	8%

Further structures
entry	molecule	MARV entry inh	Lassa entry inh	Cruzain inh Det	StopGo reporter
37	Cc1ccc(CNC(=O)C2CCC(=O)N(Cc3ccccc3F)C2)s1 (stereo unspecified)	nt	nt	nt	6%
38	N#C/C(=C\c1ccc2c(c1)OCCO2)C(=O)Nc1nccs1	8%[46.1 µM]	nt	nt	59%[activator]
39	CC(=O)c1c(C)[nH]c(C(=O)Nc2cc(S(=O)(=O)N(C)C)ccc2C)c1C	?	2%	nt	-12%
40	CCOc1ccc(C(=O)Nc2nccs2)cc1[N+](=O)[O-]	8%[46.1 µM]	16%	-4.9%	48%[activator]
41	C=CCn1c(SCC(C)=O)nnc1-c1ccc2ncccc2c1	10%	3%	nt	12%
42	Cc1ccc(N/C=C(\C#N)c2ccc(OCCCF)cc2)cc1	18%	3%	6.8%	18%
43	CN(C)CCCNC(=S)Nc1ccc(-c2ccccc2)cc1	nt	nt	nt	-10%
44	FC(F)(F)COc1cc(-c2nnc(SCc3ccccc3)n2Cc2ccco2)cc(OCC(F)(F)F)n1	nt	nt	nt	-28%
45	CCOc1ccccc1NC(=O)c1cccc(NC(=O)CC(c2ccccc2)c2ccccc2)c1	?	?	2.9%	-11%
46	CCCNC(=O)Nc1ccc(F)c(Cl)c1	1%[46.1 µM]	-3%[46.1 µM]	nt	24%
47	CCS(=O)(=O)N1CCCC(C(=O)NCCCN(C)Cc2ccccc2)C1 (stereo unspecified)	0%	3%	-1.4%	-15%
48	CCCC1=NN2C(=N)/C(=C\c3ccc(SCc4ccco4)o3)C(=O)N=C2S1	7%	22%	?	-1%

entry	SARS PLP yeast	RE007 growth inh	Cruzain inh noDet	NS1 function inh
37	1%	2%	nt	4%
38	-2%	1%	nt	-21%
39	1%	-16%	nt	nt
40	-1%	-2%	-4%	2%
41	3%	9%	nt	1%
42	-2%	-5%	3%	15%
43	-1%	-6%	nt	0%
44	0%	-8%	nt	10%
45	2%	-5%	?	?
46	-2%	10%	nt	-9%
47	0%	18%	9%	-5%
48	3%	-3%	-19%	-60%

3 structures out of the list, arranged by molecular weight, ascending.
entry	molecule	MARV entry inh	Lassa entry inh	Cruzain inh Det	StopGo reporter
43	CN(C)CCCNC(=S)Nc1ccc(-c2ccccc2)cc1	nt	nt	nt	-10%
37	Cc1ccc(CNC(=O)C2CCC(=O)N(Cc3ccccc3F)C2)s1 (stereo unspecified)	nt	nt	nt	6%
44	FC(F)(F)COc1cc(-c2nnc(SCc3ccccc3)n2Cc2ccco2)cc(OCC(F)(F)F)n1	nt	nt	nt	-28%

entry	SARS PLP yeast	RE007 growth inh	Cruzain inh noDet	NS1 function inh
43	-1%	-6%	nt	0%
37	1%	2%	nt	4%
44	0%	-8%	nt	10%

From PubChem
